Assay outcomes from PubChem.
KCNQ2 block – KCNQ2 potassium channel inhibitors, primary screen, cell-based, CHO-K1, FluxOR thallium flux, B-score (AID 2156) | B-score at 10 µM | O88943 | hit rate 1.1% among 310,000 | 20 min; hits give low values; only compounds with negative scores are shown here; some inactives read as strong as hits;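 active means fluorescence ratio B-score at most minus 3 library SDs, with starting brightness B-score within 2 library SDs, cut at about -5.5 in these data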
Target sequence (O88943 whole entry, looked up): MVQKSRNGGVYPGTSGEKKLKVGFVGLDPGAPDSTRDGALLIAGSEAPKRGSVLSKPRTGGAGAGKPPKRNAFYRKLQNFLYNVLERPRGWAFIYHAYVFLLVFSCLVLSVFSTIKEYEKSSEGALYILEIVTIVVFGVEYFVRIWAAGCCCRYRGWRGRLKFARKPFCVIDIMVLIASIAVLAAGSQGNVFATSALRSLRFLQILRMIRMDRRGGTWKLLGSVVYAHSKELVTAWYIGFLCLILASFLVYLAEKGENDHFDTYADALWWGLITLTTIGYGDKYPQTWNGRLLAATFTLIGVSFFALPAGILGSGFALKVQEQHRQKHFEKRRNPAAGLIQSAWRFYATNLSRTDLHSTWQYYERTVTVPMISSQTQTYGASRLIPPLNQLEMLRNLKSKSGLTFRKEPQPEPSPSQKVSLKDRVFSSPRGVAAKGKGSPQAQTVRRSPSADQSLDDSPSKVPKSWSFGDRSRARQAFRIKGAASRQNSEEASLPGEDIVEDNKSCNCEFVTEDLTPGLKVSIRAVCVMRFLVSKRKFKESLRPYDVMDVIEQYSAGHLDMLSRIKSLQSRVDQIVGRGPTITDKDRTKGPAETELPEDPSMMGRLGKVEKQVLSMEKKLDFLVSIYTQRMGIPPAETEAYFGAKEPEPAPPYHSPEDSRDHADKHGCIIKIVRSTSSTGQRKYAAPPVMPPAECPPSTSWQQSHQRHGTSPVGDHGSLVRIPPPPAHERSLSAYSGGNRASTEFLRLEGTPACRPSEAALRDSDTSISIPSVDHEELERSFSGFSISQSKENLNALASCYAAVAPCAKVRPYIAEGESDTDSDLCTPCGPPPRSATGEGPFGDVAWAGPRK
KCNQ2 block baseline – also measured in KCNQ2 block; calls as there; B-score; measured here: initial fluorescence intensity artifact check;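 brightness before thallium and not channel activity; 0 = typical well and far values either way flag optical interference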
* hit, by the source's call; i = inactive. The list is partial; count on the stated rates, not on these rows.

KCNQ2 block,KCNQ2 block baseline,structure
i,-2.11,COCc1nnc(NC(=O)c2ccc(S(=O)(=O)N3CCOCC3)cc2)o1
i,-0.01,CCOc1cc(CNn2cnnc2)ccc1OCC(=O)NC1CCCCC1
i,-0.21,O=C(Cn1ncc(Cl)c(Cl)c1=O)N1CCN(Cc2ccccc2)CC1
i,0.99,Cc1onc(-c2c(Cl)cccc2Cl)c1C(=O)c1ccccc1
i,-1.07,CCN(CC)CCN1C(=O)C(=O)/C(=C(/O)c2cnn(-c3ccccc3)c2C)C1c1cccnc1 (stereo not drawn)
i,-0.15,COC(=O)c1cc(C)nc(Sc2ccccc2N)n1
i,7.09,Nc1c(C(=O)c2ccccc2)sc2nsc(SCCN3CCCC3)c12
i,-0.09,CC(OC(=O)C1CCN(S(=O)(=O)c2ccc(Cl)cc2)CC1)C(=O)NC1CCCCC1C (stereo not drawn)
i,-2.08,CC1CCCCC1NC(=O)c1ccc(S(=O)(=O)NNC(=O)c2ccncc2)cc1 (stereo not drawn)
i,-1.72,CC(C)(C)NC(=O)C(c1cccs1)N(Cc1ccc(F)cc1)C(=O)c1csnn1 (stereo not drawn)
i,2.44,CCNCc1nc2cc(Cl)ccc2c(=O)[nH]1
i,-1.24,CCOC(=O)C1=C(CC)Nc2ccccc2N=C1NC(=O)c1ccc(OC)c(S(=O)(=O)N2CCCCC2C)c1 (stereo not drawn)
i,-0.33,O=C(NCc1ccccc1Cl)c1cnc2n(c1=O)CCS2
i,0.68,Cc1ccc(SCCC(=O)NCc2ccccn2)cc1
i,0.77,COc1ccc(N2CCN(C(c3cccs3)C(C)NC(=O)c3ccco3)CC2)cc1 (stereo not drawn)
i,0.22,Cc1ccc(N=Cc2c(O)c3ccccc3oc2=O)c(C)c1
i,-0.27,Cn1c(=O)c2c(nc(CN3CCN(C(=O)c4ccco4)CC3)n2Cc2ccccc2F)n(C)c1=O
i,0.3,O=C(C1CCC1)N1CCc2cc(S(=O)(=O)N3CCc4ccccc4C3)ccc21
i,-0.32,C/C(=N\NC(=S)Nc1ccc(F)cc1)c1ccc2c(c1)OCCO2
i,0.31,COc1ccccc1C(=O)NCCC(=O)N(C)Cc1cccs1
i,0.74,CCC(C)c1ccc(NC(=O)c2c([N+](=O)[O-])cnn2CC)cc1 (stereo not drawn)
i,0.68,Cc1ccc(N2C(=O)c3cccc4c(C(=O)O)ccc(c34)C2=O)cc1
i,-1.02,COc1ccc(CN2C(=O)c3cccnc3C2=O)cc1S(=O)(=O)N1CCCC(C)C1 (stereo not drawn)
i,0.45,O=C(CCCCCNC(=O)N1CCn2c1nc1ccccc12)NCc1ccc(Cl)cc1
i,0.37,NC(=O)c1c(NC(=O)c2ccc(F)cc2Cl)sc2c1CCC2
i,-1.38,Cc1cccc(N2CCN(CC(O)COCc3cccs3)CC2)c1C (stereo not drawn)
i,-0.1,O=C(Nc1cc(Cl)ccc1Cl)C1Cc2ccccc2O/C1=N\O (stereo not drawn)
i,-1.52,COc1ccc(N(CC(=O)Nc2ccc3c(c2)OCO3)S(=O)(=O)c2ccccc2)cc1
i,1.58,O=C(O)c1cccc(-n2c(/C=C/c3ccccc3)nc3ccccc3c2=O)c1
i,-1.23,Cc1cccc(C)c1OCC(O)CN1CCc2ccccc2C1 (stereo not drawn)

Full records from above. Values in the order: KCNQ2 block, KCNQ2 block baseline
Cc1ccc(N=Cc2c(O)c3ccccc3oc2=O)c(C)c1 as listed: i, 0.22
O=C(O)c1cccc(-n2c(/C=C/c3ccccc3)nc3ccccc3c2=O)c1 as listed: i, 1.58

(cont.)
KCNQ2 block,KCNQ2 block baseline,structure
i,0.61,COc1cccc(-c2nnc(NC(=O)c3ccc(Cl)s3)o2)c1
i,-0.03,Cc1ccc(-c2cc(-c3ccccc3C)[nH]n2)c(O)c1
i,-0.1,O=C(Nc1ccc(S(=O)(=O)C(F)F)cc1)c1ccc2c(=O)n3c(nc2c1)CCC3
i,1.23,CCSc1nnc(CNC(=O)c2ccccc2F)n1-c1ccccc1OC
i,0.28,COc1ccccc1C(=O)COC(=O)CNS(=O)(=O)c1ccc(C)c(C)c1
i,1.5,CCOc1ccc(C2C(C(=O)OC)=C(C)N=C3SCCC(=O)N32)cc1OCC (stereo not drawn)
i,-1.31,Cc1ccc(-c2ccc(=O)n(CCC(=O)N3CCN(c4cccc(C)c4)C(C)C3)n2)cc1 (stereo not drawn)
i,1.96,Cn1c(SCC2CCCO2)nnc1-c1ccc([N+](=O)[O-])cc1 (stereo not drawn)
i,0.01,CN(C)c1ccc(NC(=O)N2CCOCC2)cc1
i,-0.82,C=CC(=O)Oc1ccc(N2Cc3ccccc3C2=O)cc1
i,1.87,Cc1cc(SCC(=O)Nc2ncc(Cl)cc2Cl)nc2ccccc12
i,0.27,Cc1cccc[n+]1C1C(c2ccc([N+](=O)[O-])cc2)C(C#N)=C(C(=C=[N-])C#N)NC1(O)C1CC1 (stereo not drawn)
i,0.78,CC1(C)Cc2nc3sc(C(=O)NCCCO)c(N)c3cc2CO1
i,1.09,COCC1CCCCN1Cc1cn[nH]c1-c1ccc2cc(OC)ccc2c1 (stereo not drawn)
i,-1.1,COC(=O)c1sccc1NC(=O)c1ccc(C(C)C)cc1
i,1.55,Cc1oc(-c2cccs2)nc1CN1CCN(CCC(C)C)C(CCO)C1 (stereo not drawn)
i,0.67,N#CCCn1c(SCC(=O)N2CCN(S(=O)(=O)c3ccccc3)CC2)nc2ccccc21
i,2.07,Cc1cc2ccccc2n1CCNC(=O)Cc1cccc2ccccc12
i,-0.05,COc1ccc(-c2nnc3n(CCc4ccccc4)c(=O)c4ccccc4n23)cc1OC
i,0.62,COC(=O)c1ccsc1NC(=O)CSc1nnnn1-c1ccccc1SC
i,0.24,Cc1cccc(NC(=O)c2ccco2)c1C(=O)O
i,-1.49,CC(=O)Nc1ccc(S(=O)(=O)NNC(=O)c2cccc([N+](=O)[O-])c2)cc1
i,0.77,COc1ccccc1C(=O)COC(=O)C(CCSC)NC(=O)COc1ccccc1 (stereo not drawn)
i,0.32,O=C1c2ccccc2S(=O)(=O)N1CC1CC(c2ccccc2)=NO1 (stereo not drawn)
i,-0.61,NC(=O)c1sc2nc(-c3cccnc3)ccc2c1N
i,0.28,Cc1ccc(NC(=O)CN2C(=O)CSC2=O)cc1
i,-0.03,CC(C)CCNC(=O)CN(C(=O)Cn1nnc(-c2ccccc2F)n1)c1cccc2c1CCCC2
i,1.05,C/C(=N\NC(=O)c1cc(-c2cccc([N+](=O)[O-])c2)n[nH]1)c1ccccc1O
i,1.3,C=CCn1c(=O)/c(=C/c2cc(OC)c(OC)c(OC)c2)s/c1=C(/C#N)c1nc2ccccc2n1C
i,0.86,COCCSc1nnc(NC(=O)c2ccco2)s1
i,-1.29,COc1ccc(-n2c(SCC#N)nnc2-c2ccc(NS(=O)(=O)c3ccc(C)cc3)cc2)cc1
i,0.2,COc1cc(/C=N\NC(=O)c2ccc(C)nc2)ccc1OC(=O)c1ccc2c(c1)OCO2
i,0.48,CN1CCN(C(=O)C23CC4CC(C)(CC(C)(C4)C2)C3)CC1
i,-0.1,O=C(/C=C/c1cccc(Cl)c1)c1ccc([N+](=O)[O-])o1
i,1,CCC(C)c1ccccc1N1CC(C(=O)Nc2cc(S(=O)(=O)N3CCOCC3)ccc2OC)CC1=O (stereo not drawn)
i,2.27,Cc1ccccc1CN1[C@@H](Cc2ccccc2)COCCS1(=O)=O
i,0.45,O=C(CCn1c(=S)[nH]c2ccccc2c1=O)N1CCCCC1
i,1.69,COc1ccc(/C=C2\Oc3cc(OC(=O)N4CCOCC4)ccc3C2=O)cc1
i,0.01,O=C(NCc1ccc2c(c1)OCO2)C1CCN(Cc2cnn(-c3ccccc3)c2-n2cccc2)CC1
i,-0.12,O=S(=O)(NCC(c1cccnc1)N1CCN(c2ccccc2F)CC1)c1cccs1 (stereo not drawn)
i,-0.35,CCN(CC(=O)Nc1ccc2c(c1)OCCO2)C(=O)CSCC(=O)Nc1ccc(C)cc1
i,0.8,COCc1c(C(=O)OCc2c(C)noc2C)oc2ccccc12
i,2.05,Cc1cc(C)c(CSc2ncc(-c3ccc([N+](=O)[O-])cc3)[nH]2)c(C)c1
i,0.5,CCCCCOc1ccc(CSc2n[nH]c(C)n2)cc1
i,0.05,O=C(NC(=S)N(Cc1ccccc1)c1ccccn1)C1CC1
i,0.12,CCN(CC)CCNC(=O)c1ccc(NC(=O)c2cc(-c3ccco3)nc3ccccc23)cc1
i,-1.69,CN(C)C(=O)CN1C(=O)NC2(CCc3ccccc32)C1=O (stereo not drawn)
i,1.43,O=C(Nc1nc2ccccc2s1)c1cc(-c2ccccc2)nn1-c1ccccc1
i,1.18,CC(C)N1C2OC(C3OC4C(O3)N(C(C)C)S(=O)(=O)N4C(C)C)OC2N(C(C)C)S1(=O)=O (stereo not drawn)
i,0.09,CCCOC(=O)CSC1=C(C#N)C(c2ccccc2Cl)CC(=O)N1 (stereo not drawn)
i,-1.66,Cc1nn(-c2ccccc2)c(C)c1NC(=O)COC(=O)c1cc([N+](=O)[O-])ccc1NCCO
i,0.71,COCC(C)n1c(C)cc(C(=O)CSc2nnc(N)s2)c1C (stereo not drawn)
i,0.78,O=C(CSc1nnc(-c2ccc(NS(=O)(=O)c3ccccc3)cc2)o1)NCC1CCCO1 (stereo not drawn)
i,1.35,Cc1cc(C2(c3ccc(O)c(C)c3)C(=O)N(C)c3ccc(Br)cc32)ccc1O
i,1.8,O=C(CCC1CCCC1)N1CCC(N2CCN(c3ccccc3)CC2)CC1
i,-1.21,COc1cccc(C(=O)NC2CC3CCCC(C2)N3CC(=O)Nc2ccccc2C(F)(F)F)c1 (stereo not drawn)
i,0.95,C=CCSc1nc2sc3c(c2c(=O)[nH]1)CCC3
i,1.27,CN(C)C(=O)CCSc1nnc(-c2ccncc2)o1
i,-2.08,Clc1ccc(-c2cn3cccnc3n2)cc1
i,-0.38,CCOC(=O)C#CC(CCc1ccccc1)OS(N)(=O)=O (stereo not drawn)

14 of these compounds, reformatted:
Molecule	KCNQ2 block	KCNQ2 block baseline
CCC(C)c1ccc(NC(=O)c2c([N+](=O)[O-])cnn2CC)cc1 (stereo not drawn)	i	0.74
Cc1ccc(N2C(=O)c3cccc4c(C(=O)O)ccc(c34)C2=O)cc1	i	0.68
COc1ccc(CN2C(=O)c3cccnc3C2=O)cc1S(=O)(=O)N1CCCC(C)C1 (stereo not drawn)	i	-1.02
O=C(CCCCCNC(=O)N1CCn2c1nc1ccccc12)NCc1ccc(Cl)cc1	i	0.45
NC(=O)c1c(NC(=O)c2ccc(F)cc2Cl)sc2c1CCC2	i	0.37
Cc1cccc(N2CCN(CC(O)COCc3cccs3)CC2)c1C (stereo not drawn)	i	-1.38
O=C(Nc1cc(Cl)ccc1Cl)C1Cc2ccccc2O/C1=N\O (stereo not drawn)	i	-0.1
COc1ccc(N(CC(=O)Nc2ccc3c(c2)OCO3)S(=O)(=O)c2ccccc2)cc1	i	-1.52
O=C(O)c1cccc(-n2c(/C=C/c3ccccc3)nc3ccccc3c2=O)c1	i	1.58
Cc1cccc(C)c1OCC(O)CN1CCc2ccccc2C1 (stereo not drawn)	i	-1.23
COc1cccc(-c2nnc(NC(=O)c3ccc(Cl)s3)o2)c1	i	0.61
Cc1ccc(-c2cc(-c3ccccc3C)[nH]n2)c(O)c1	i	-0.03
O=C(Nc1ccc(S(=O)(=O)C(F)F)cc1)c1ccc2c(=O)n3c(nc2c1)CCC3	i	-0.1
CCSc1nnc(CNC(=O)c2ccccc2F)n1-c1ccccc1OC	i	1.23

Additional compounds:
KCNQ2 block,KCNQ2 block baseline,structure
i,0.37,Cc1cccc2cc(C(c3nnnn3C(C)(C)C)N(Cc3ccco3)CC3CCCO3)c(=O)[nH]c12 (stereo not drawn)
i,-0.03,CCOc1cnc(C(=O)NNC(=O)c2ccccc2Br)o1
i,-0.64,Cc1ccccc1NC(=O)c1ccc(OCC(=O)Nc2ccccc2F)cc1
i,0.06,COc1ccccc1NS(=O)(=O)c1cc(C(=O)NCC(c2ccco2)N2CCCCC2)ccc1C (stereo not drawn)
i,-0.06,O=C(N/N=C/c1cccnc1)c1cccc(NC(=O)c2cccc(Br)c2)c1
i,-0.75,CC1CCCN(CC(=O)Nc2cccc([N+](=O)[O-])c2)C1 (stereo not drawn)
i,-0.22,Cc1nn(C)c(C(=O)N/N=C/c2cccc3ccccc23)c1Cl
i,1.25,C(=C\c1ccccc1)/CSc1nnc(-c2cccnc2)o1
i,4.39,Cc1cccc(-n2ncc3c(NCc4cccnc4)ncnc32)c1
i,3.98,O=C1CC(Sc2nnc(-c3ccccc3)o2)C(=O)N1c1ccccc1 (stereo not drawn)
i,0.52,COc1ccccc1C(=O)NC(=O)COC(=O)C1CCC1
i,-0.75,Cc1c(C(=O)N2CCCC(C)C2)sc2ncnc(N3CCCCC3C)c12 (stereo not drawn)
i,0.94,Cc1ccc(OCC(=O)OCc2nc3scc(-c4ccccc4)c3c(=O)[nH]2)cc1C
i,-0.29,COC(=O)c1ccc(CNC(=O)c2cc3ccccc3oc2=O)cc1
i,1.28,CC(C)C(=O)N1CCC2(CC1)Oc1ccc(Cl)cc1C(=O)C21CC(c2cccnc2)=NO1 (stereo not drawn)
i,1.29,O=C(O)CSc1nnc(-c2ccncc2)n1C1CCCCC1
i,-0.61,CC(OC(=O)/C=C/c1cccs1)C(=O)Nc1ccc(S(N)(=O)=O)cc1 (stereo not drawn)
i,-1.77,CCC(C)NC(=O)CSc1nc2cc3c(cc2c(=O)n1Cc1ccco1)OCO3 (stereo not drawn)
i,-0.84,CCOC(=O)c1c(NC(=S)Nc2ccc(OC)cc2)sc2c1CCCCC2
i,0.56,CCCCC(=O)NC(=S)Nc1cccc(C(=O)O)c1
i,0.1,O=C(O)CC/C(=C\c1ccc(Cl)c([N+](=O)[O-])c1)c1nc2ccccc2s1
